Source: PubChem (National Center for Advancing Translational Sciences (NCATS))
Cruzain inh Det: cruzain (T. cruzi) inhibition with detergent; P25779; purified cruzain, Z-FR-AMC fluorescence, 0.01% Triton; Potency, µM, inactives show max response, negative = inhibition, most hits filed as inhibitors; 200,000 tested, 0.43% active; AID 1478;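 note: plate controls were neutral wells for no effect and buffer without enzyme for full effect; nearly all actives have a fitted effect of over 40% in size; top concentration of the series not given in the record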
Target sequence (P25779 123-467 limits assumed): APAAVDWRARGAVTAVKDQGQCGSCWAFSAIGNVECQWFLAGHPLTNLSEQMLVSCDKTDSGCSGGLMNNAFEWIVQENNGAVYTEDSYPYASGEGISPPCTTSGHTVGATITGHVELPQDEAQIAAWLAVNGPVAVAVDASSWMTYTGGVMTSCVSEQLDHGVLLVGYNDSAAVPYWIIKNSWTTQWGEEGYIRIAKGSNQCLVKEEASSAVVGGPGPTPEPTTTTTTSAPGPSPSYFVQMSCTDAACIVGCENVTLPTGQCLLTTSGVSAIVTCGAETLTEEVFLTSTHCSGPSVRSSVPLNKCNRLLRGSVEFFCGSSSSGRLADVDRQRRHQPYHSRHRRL
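Cruzain (1.5 nM) preincubated 15 min at RT with compound in 100 mM sodium acetate pH 5.5, 5 mM DTT, 0.01% Triton X-100. Reaction started with 2 uM Z-FR-AMC; AMC fluorescence (ex 360/em 450 nm) change over 60 s gave rate.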
NS1 function inh: inhibitors of influenza NS1 protein function; AID 2326; Potency, µM (doses to about 46.1 µM), without a hit: top-dose activity, positive = more growth; S. cerevisiae slowed by influenza A NS1, growth recovery by OD600; 270,000 tested, 0.4% active; active means well fitted rising curve with a large enough effect; inconclusive means small, poorly fitted or top-dose-only effect; inactive means no such curve, though single readings can be large or run the other way; note: nearly all actives have a fitted effect of over 50% in size
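S. cerevisiae expressing influenza A NS1, grown in glucose, washed, then diluted 1:100 into pH 6.0 -URA galactose medium with 23 nl compound. Growth recovery read as OD600; NS1-free strain serves as control.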
Cruzain noTriton: blocks cruzain activity in detergent-free assay. purified cruzain, Z-FR-AMC fluorescence, no detergent. Potency, µM, inactives show max response, negative = inhibition, most hits filed as inhibitors. 200,000 tested, 2.3% active. P25779;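 note: plate controls were enzyme without inhibitor for no effect and buffer without enzyme for full effect; nearly all actives have a fitted effect of over 40% in size; top concentration of the series not given in the record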
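Purified cruzain at 1.5 nM, pre-incubated 15 min with compound at room temperature in 100 mM sodium acetate pH 5.5, 5 mM DTT, 0.00005% Triton X-100. Reaction started with 2 uM Z-FR-AMC; AMC fluorescence increase over 60 s gives rate.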
* marks the source's active call; other numbers are inactive results; ? = inconclusive; . = not tested or not shown. Unless noted, calls come from the whole dose curve; as a rule, active = well fitted curve in the direction sought with a large enough effect; inconclusive = small, poorly fitted or top-dose-only effect, or another doubt; inactive = no such curve, though single readings can be large; an effect the other way counts as inactive or inconclusive. Potency is the fitted concentration of half-maximal effect. This is a subset; count on the stated rates, not on these rows.

Each structure is followed by: NS1 function inh	Cruzain noTriton	Cruzain inh Det
(1) Cc1nn2c(c1-c1ccccc1)NC1=C(C(=O)CCC1)C2c1cccnc1 (stereo not drawn)
  4%	.	.
(2) COc1ccc(NC(=O)c2cnc3sccn3c2=O)cc1OC
  -6%	.	.
(3) O=C1C(=O)N(CCCn2ccnc2)C(c2cccnc2)/C1=C(/O)c1ccc(Br)cc1 (stereo not drawn)
  7%	.	.
(4) O=C(O)C1CCC(CNc2c(NC3CCCCC3)c(=O)c2=O)CC1 (stereo not drawn)
  ?	.	.
(5) CCOc1ccc(-n2nc(C(=O)N3CCOCC3)c3ccccc3c2=O)cc1
  5%	.	.
(6) CC(=O)Nc1c(C(=O)N2CCN(c3ncccn3)CC2)cnn1-c1ccccc1Cl
  2%	.	.
(7) Cn1nc(-c2ccc(N3CCOCC3)c(NC(=O)COc3ccccc3)c2)c2ccccc2c1=O
  -23%	.	.
(8) COc1cc(-c2ccc(NC(=O)CN3CCCCC3)c(OC)c2)ccc1NC(=O)CN1CCCCC1
  0%	.	.
(9) Cc1cccn2c(=O)c3cc(C(=O)NCC4CCCO4)n(C)c3nc12 (stereo not drawn)
  -9%	.	.
(10) O=C(NCCN1CCOCC1)c1cc(-c2ccc(O)cc2)on1
  -17%	.	.
(11) Cc1cc(N2CCN(c3nc(N4CCOCC4)nc4ccccc34)CC2)c2ccccc2n1
  10%	.	.
(12) Cc1cc(C)n2nc(SCc3cc(=O)n4c(C)cccc4n3)nc2n1
  9%	.	.
(13) COc1cccc(CN2CCN(C(=O)c3cccc(F)c3)CC2)c1
  0%	.	.
(14) N#Cc1ccc(NC(=O)c2cc3cc4c5c(c3oc2=N)CCCN5CCC4)cc1
  1%	.	.
(15) Cc1nc2c(cnn2-c2ccc(Cl)cc2)c(=O)n1-c1ccc2c(c1)OCCO2
  -6%	.	.
(16) Cc1cc(SCC(=O)Nc2c(C)n(C)n(-c3ccccc3)c2=O)n2c(nc3ccccc32)c1C#N
  26%	.	.
(17) CN(C)c1ccc(-c2nn3c(-c4ccncc4)nnc3s2)cc1
  -8%	.	.
(18) Cc1cccc(-c2c3c(=O)n(C)c(=O)n(C)c3c3c(C)cc(C)nn23)c1
  -13%	.	.
(19) Cc1oc(-c2ccc(Cl)cc2)nc1CN1CCCC(C(=O)N2CCc3ccccc32)C1 (stereo not drawn)
  -52%	.	.
(20) COc1ccccc1N1CCN(c2nc3ccccc3n3nnnc23)CC1
  -2%	.	.
(21) Cc1oc2cc3c(C(=O)N4CCN(C)CC4)c(C)oc3cc2c1C(=O)N1CCN(C)CC1
  6%	.	.
(22) O=C(COC(=O)C1CCCN1S(=O)(=O)c1ccc(Cl)cc1)Nc1ccc2c(c1)OCO2 (stereo not drawn)
  -31%	.	.
(23) O=C(c1ccco1)N1CCN(Cc2ccccc2C(F)(F)F)CC1
  -35%	.	.
(24) Cc1ccc(-c2nnc3ccc(SCC(=O)N4CCCCC4)nn23)cc1
  -5%	.	.
(25) Cc1cccc(N2CCN(S(=O)(=O)c3ccc4c(c3)c(=O)n(C)c(=O)n4C)CC2C)c1 (stereo not drawn)
  -2%	.	.
(26) COc1ccc(C)cc1NC(=O)c1cc2c(C)nc3ccccc3c2o1
  3%	.	.
(27) CCCCCn1c(SCC#N)nc2cc(C(=O)NC3CCCCC3)ccc2c1=O
  17%	.	.
(28) Cc1ccc(N2CCn3c2nc2c3c(=O)n(CCc3ccccc3)c(=O)n2C)cc1
  -1%	.	.
(29) CCCS(=O)(=O)NCCc1csc(-c2cccnc2)n1
  -1%	.	.
(30) Cc1nc2sc3c(c2c2nc(-c4ccco4)nn12)CC(C)(C)OC3
  2%	.	.

Two of these compounds, reformatted.
no. | Structure | NS1 function inh | Cruzain noTriton | Cruzain inh Det
20 | COc1ccccc1N1CCN(c2nc3ccccc3n3nnnc23)CC1 | -2% | . | .
21 | Cc1oc2cc3c(C(=O)N4CCN(C)CC4)c(C)oc3cc2c1C(=O)N1CCN(C)CC1 | 6% | . | .

More compounds.
Each structure is followed by: NS1 function inh	Cruzain noTriton	Cruzain inh Det
(31) COC(=O)c1ccc2c(c1)N(Cc1nc(-c3cccc(Cl)c3)oc1C)C(=O)C1CCCN21 (stereo not drawn)
  26%	.	.
(32) c1nc(N2CCOCC2)c2sc3nc(N4CCOCC4)c4c(c3c2n1)CCCC4
  -9%	.	.
(33) Cc1oc(-c2ccc(Cl)cc2)nc1CN1CCC(C(=O)N2CCN(c3ccccn3)CC2)CC1
  7%	.	.
(34) O=C(c1cc2c(=O)oc3ccccc3c2s1)N1CCN(c2ccccn2)CC1
  9%	.	.
(35) COC(=O)c1cc(OC)c(OC)cc1NC(=O)c1c(C)noc1C
  10%	.	.
(36) COc1ccc(C2C3=C(CC(C)(C)CC3=O)Oc3ncn4nc(-c5cccnc5)nc4c32)cc1OC (stereo not drawn)
  4%	.	.
(37) CC1CC(C)CN(CCCNC(=O)CNC(=O)Cn2ccc3ccccc3c2=O)C1 (stereo not drawn)
  3%	.	.
(38) c1ccc(-c2nc3cc(Cc4ccc5oc(-c6ccccn6)nc5c4)ccc3o2)nc1
  1%	.	.
(39) CC(C)(NCc1ccccc1Cl)C(=O)O
  2%	.	.
(40) Cn1c(C(=O)N2CCN(c3ccc(Cl)cc3)CC2)cc2c(=O)n(C)c3ccccc3c21
  -4%	.	.
(41) CCCc1nc2ccccc2n2cc3c(=O)n(C)c(=O)n(C)c3c12
  8%	.	.
(42) Clc1cccc(-c2nnc3sc(-c4ccccc4)nn23)c1
  16%	.	.
(43) CCCCNC(=O)c1cn(C)c2ccc(S(=O)(=O)N3CCOCC3)cc2c1=O
  0%	.	.
(44) CCn1cc(C(=O)O)c(=O)c2cnc(N3CCN(C(=O)Nc4ccccc4)CC3)nc21
  0%	.	.
(45) COc1ccc(-c2ccc(=O)n(CC(=O)N3CCN(c4ccccc4OC)CC3)n2)cc1
  18%	.	.
(46) COCCN1C(=O)C(=O)/C(=C(/O)c2ccc(OCC(C)C)cc2)C1c1cccnc1 (stereo not drawn)
  15%	.	.
(47) CN(C)c1nc(N2CCCCC2)nc(N2CCCCC2)n1
  -6%	.	.
(48) CCCNC(=O)c1cc(-c2ccc(O)cc2)on1
  -35%	.	.
(49) C=CCn1c(SCC(=O)NCc2ccco2)nc2sc3c(c2c1=O)CCCCC3
  7%	.	.
(50) COc1cccc(NC(=O)N2CCN(Cc3nc4ccccc4c(=O)[nH]3)CC2)c1
  -3%	.	.
(51) COc1ccccc1/C=c1\sc2nc(-c3ccncc3)nn2c1=O
  8%	.	.
(52) CCOC(=O)c1sc(NC(=S)n2cc(C)cn2)c(C(=O)OCC)c1C
  6%	.	.
(53) COC(=O)c1ccc2c(=O)n(CCC3=CCCCC3)c(SCC(=O)N3CCCC3)nc2c1
  6%	.	.
(54) CCN(CC)CCCN1C(=O)C(O)=C(C(C)=O)C1c1ccc(OC)cc1OC (stereo not drawn)
  6%	.	.
(55) c1ccc(Cn2ncc3c2ncn2nc(-c4ccncc4)nc32)cc1
  2%	.	.
(56) Cc1nnc(Sc2nc(Sc3nnc(C)s3)nc(N3CCN(C)CC3)n2)s1
  -8%	.	.
(57) COc1ccc(C2C3=C(CCCC3=O)Nc3nc4ccccc4n32)c(OC)c1OC (stereo not drawn)
  -12%	.	.
(58) CCCCN(CC)CCNS(=O)(=O)c1cccc2cccnc12
  -1%	.	.
(59) CCCCn1c(NC(=O)c2ccc(F)cc2)c(C#N)c2nc3ccccc3nc21
  -42%	.	.
(60) Cn1c(C(=O)NCCCN2CCCC2=O)cc2c(=O)n3ccccc3nc21
  -7%	.	.

Laid out differently: results already given
nr | molecule | NS1 function inh | Cruzain noTriton | Cruzain inh Det
48 | CCCNC(=O)c1cc(-c2ccc(O)cc2)on1 | -35% | . | .
49 | C=CCn1c(SCC(=O)NCc2ccco2)nc2sc3c(c2c1=O)CCCCC3 | 7% | . | .
50 | COc1cccc(NC(=O)N2CCN(Cc3nc4ccccc4c(=O)[nH]3)CC2)c1 | -3% | . | .
51 | COc1ccccc1/C=c1\sc2nc(-c3ccncc3)nn2c1=O | 8% | . | .
52 | CCOC(=O)c1sc(NC(=S)n2cc(C)cn2)c(C(=O)OCC)c1C | 6% | . | .
53 | COC(=O)c1ccc2c(=O)n(CCC3=CCCCC3)c(SCC(=O)N3CCCC3)nc2c1 | 6% | . | .
54 | CCN(CC)CCCN1C(=O)C(O)=C(C(C)=O)C1c1ccc(OC)cc1OC (stereo not drawn) | 6% | . | .
55 | c1ccc(Cn2ncc3c2ncn2nc(-c4ccncc4)nc32)cc1 | 2% | . | .
56 | Cc1nnc(Sc2nc(Sc3nnc(C)s3)nc(N3CCN(C)CC3)n2)s1 | -8% | . | .
57 | COc1ccc(C2C3=C(CCCC3=O)Nc3nc4ccccc4n32)c(OC)c1OC (stereo not drawn) | -12% | . | .
58 | CCCCN(CC)CCNS(=O)(=O)c1cccc2cccnc12 | -1% | . | .
59 | CCCCn1c(NC(=O)c2ccc(F)cc2)c(C#N)c2nc3ccccc3nc21 | -42% | . | .
60 | Cn1c(C(=O)NCCCN2CCCC2=O)cc2c(=O)n3ccccc3nc21 | -7% | . | .

Following part:
Each structure is followed by: NS1 function inh	Cruzain noTriton	Cruzain inh Det
(61) COc1ccc(N2CCN(c3nc4c(c(=O)[nH]c(=O)n4C)n3Cc3ccccc3Cl)CC2)cc1
  14%	.	.
(62) CCn1c(Oc2ccc(Oc3ncc(Cl)cc3Cl)cc2)nc2c1c(=O)n(C)c(=O)n2C
  -5%	.	.
(63) CCCn1c(=O)n(C)c(=O)c2c3oc(=O)c(NC(=O)c4ccc(F)cc4)cc3[nH]c21
  -2%	.	.
(64) CCOC(=O)N1CCC(NC(=O)Cn2ncn3c(cc4sc(CC)cc43)c2=O)CC1
  -2%	.	.
(65) CCOC(=O)c1c(NC(=O)c2noc3c2CCCC3)sc2c1CCCC2
  -13%	.	.
(66) c1ccc(-c2nn3c(C4COc5ccccc5O4)nnc3s2)cc1 (stereo not drawn)
  -46%	.	.
(67) CSc1nc(-c2ccccc2O)nc(-c2ccccc2O)n1
  5%	.	.
(68) Cc1cc(Nc2nc3c(c(=O)n(C)c(=O)n3C)n2C)n(-c2ccccc2)n1
  8%	.	.
(69) C=CCOc1ccc(C2c3c(oc4ccccc4c3=O)C(=O)N2c2ccccn2)cc1OCC (stereo not drawn)
  4%	.	.
(70) Cn1c(=O)c2c(nc(CN3CCc4ccccc4C3)n2CCc2ccccc2)n(C)c1=O
  -4%	.	.
(71) O=C(O)Cn1c(=O)oc2cc(S(=O)(=O)N3CCOCC3)ccc21
  8%	.	.
(72) CCOc1ccc(NC(=O)c2oc3ccccc3c2NC(=O)C2CC2)cc1
  -11%	.	.
(73) COc1cccc(C2C3=C(CCCC3=O)Nc3nc4ccccc4n32)c1OC (stereo not drawn)
  -3%	.	.
(74) O=C1C(=O)N(CCCn2ccnc2)C(c2cccnc2)/C1=C(/O)c1ccccc1 (stereo not drawn)
  9%	.	.
(75) COC(=O)C1=C(C)N(Cc2ccccc2)C(=NCc2ccco2)N[C@H]1c1ccc(Br)cc1
  -15%	.	.
(76) CC1CN(c2c(F)c(N)c3c(=O)c(C(=O)O)cn(C4CC4)c3c2F)CC(C)N1 (stereo not drawn)
  .	-1%	-1.4%
(77) CC(=O)O[C@@H]1CC(C)=C2[C@H]1[C@H](C)CC[C@H]2/C=C(\C)C(=O)O
  .	-1%	6.2%
(78) C[C@@H](Cc1cccc(C(F)(F)F)c1)NCCCc1ccccc1
  .	-9%	-1.0%
(79) COC(=O)c1ccccc1N
  .	0%	-0.5%
(80) Cc1ccco1
  .	0%	0.0%
(81) [O]=[Cd]
  .	-4%	4.3%
(82) Nc1ccccc1-c1ccccc1
  .	1%	4.6%
(83) CCC1=C2CC[C@H]3C(=O)N(c4ccccc4)C(=O)[C@H]3[C@H]2[C@@]2(Cc3ccccc3)C(=NCCc3c[nH]c4ccccc34)OC(=O)N2C1=O
  .	-16%	3.6%
(84) COc1ccc2c(c1)O[C@@H](c1cccc(C(F)(F)F)c1)[C@H](OC(=O)NS(=O)(=O)c1ccc(C)cc1)C2=O
  .	13%	-7.2%
(85) CCCn1c(C)nc2c(NCCCN(C)C)nc(C)nc21
  .	-7%	5.8%
(86) O=[N+]([O-])c1ccc(-c2[se]c3ccccc3c2I)cc1
  .	-24%	-0.4%
(87) CCC/C=C(\CCC)C(NC(=O)c1ccc(-c2ccccc2)cc1)c1ccc(C(=O)OC)cc1 (stereo not drawn)
  .	-2%	1.1%
(88) C[C@]1(C(=O)O)CCC[C@]2(C)c3cc(O)ccc3CC[C@@H]12
  .	-2%	-1.5%
(89) CCCCC/C=C\C[C@H](O)/C=C/C=C/C=C/[C@@H](O)CCCC(=O)O
  .	-7%	3.5%
(90) O=C1OC(=O)c2ccccc21
  .	-7%	3.3%
